Beta cell apopt – beta cell apoptosis inhibition. INS-1E cytokine-induced death, ATP luminescence, 48 h; percent of positive-control rescue, neutral wells zero. protection from apoptosis, % (no concentration beside the values). 300,000 compounds, 0.8% hits. AID 435005;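 active = all replicates at 75% or more, or half of them and the mean; inconclusive = half reach 75% but not the mean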;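 also: 0% = cytokine-treated negative control wells and 100% = positive control rescue; higher means more ATP so stronger rescue from cytokine killing; wells of about 40 µL received 100 nL stock; the first replicate is given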
ALR H2O2 inh – inhibitors of human sulfhydryl oxidase ALR. P55789. purified ALR, DTT oxidation, H2O2 HRP-luminol luminescence. inhibition, % (concentration not given with the values). 290,000 compounds, 3.8% hits;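 active = mean and each replicate at 75% or more; inconclusive = only one of the two met; inactive = neither met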;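 also: stock transfer was 7.5 nL into about 7.5 µL; 0% = neutral wells and 100% = wells with inactivated enzyme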
Bfl-1 A1 inh – inhibitors of the anti-apoptotic protein A1, read as caspase activation | MEF A1-2A-BIM cells, Caspase-Glo 3/7 luminescence, 3 h; percent of clofoctol response, vehicle zero | caspase activation, % (test concentration not listed) | 330,000 compounds, 0.066% hits;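 active = over half of replicate activation scores above 10%, or exactly half above 10 with the replicate mean above 10; inconclusive = replicate mean below 10 yet half the replicates above 10; inactive = over half of replicates below 10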;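 also: wells of about 30 µL received 50 nL stock; many hits fall short of the cut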
T cruzi repl – blocks replication of Trypanosoma cruzi; T. cruzi beta-gal in NIH3T3, luminescence, 90 h; inhibition, % (concentration not given with the values); 300,000 compounds, 1.4% hits;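 active = mean inhibition across valid replicates above about 55%, limit read from the data; inconclusive = mean below that limit but half or more replicates reach it; inactive = mean below it, under half of replicates reach it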;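 also: signal also drops with host cell toxicity which is not excluded here; 0% = plate median of DMSO wells and 100% = zero luminescence signal; higher percent means less beta-gal luminescence so fewer parasites; stock transfer was 50 nL into about 50 µL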
Beta2AR agonist – agonists of human beta-2 adrenergic receptor inducing internalization; Am2.2-beta2AR cells, FAP receptor internalization, flow cytometry; reference of the scale not given here; response, % (concentration not given with the values); 340,000 compounds, 0.43% hits; AID 504454;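 active = response above a set limit, near 3 SD of response in nonfluorescent compounds, cut at about 42% in these data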;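 also: stock transfer was 100 nL into about 11 µL; a reference agonist was the positive control; negative values mostly stem from fluorescent compounds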
Ecoli rRNA inh – selective bacterial rRNA inhibition in E. coli | E. coli WT GFP vs humanized-ribosome RFP mutants, fluorescence, 24 h; hits give low values; DMSO median 0, no signal -100 | GFP signal change (wild-type ribosome), % (no concentration beside the values) | 350,000 compounds, 1.6% hits | AID 720706;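 active = significant combined selectivity score with lowered wild-type GFP, culture density cut under 30%, mutant RFP and density less affected; inactive = any of these conditions unmet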; also: one replicate is shown; some compounds called inactive have numbers as strong as hits
LANA-H2B inh – blocks KSHV LANA binding to histone H2A/H2B; cell-free LANA-H2A/H2B peptide, fluorescence polarization; 320,000 compounds, 0.6% hits; AID 2629; inhibition, % (test concentration not listed); in the data active = inhibition mostly above about 10%, no sharp cut-off; inactive = mostly below about 6.7%;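 also: stock transfer was 7.5 nL into about 10 µL; 0% = median of vehicle wells and 100% = median of positive control wells; one replicate is shown; the record names a cut of 25% in any replicate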
Target sequence (Q9QR71 whole entry, looked up): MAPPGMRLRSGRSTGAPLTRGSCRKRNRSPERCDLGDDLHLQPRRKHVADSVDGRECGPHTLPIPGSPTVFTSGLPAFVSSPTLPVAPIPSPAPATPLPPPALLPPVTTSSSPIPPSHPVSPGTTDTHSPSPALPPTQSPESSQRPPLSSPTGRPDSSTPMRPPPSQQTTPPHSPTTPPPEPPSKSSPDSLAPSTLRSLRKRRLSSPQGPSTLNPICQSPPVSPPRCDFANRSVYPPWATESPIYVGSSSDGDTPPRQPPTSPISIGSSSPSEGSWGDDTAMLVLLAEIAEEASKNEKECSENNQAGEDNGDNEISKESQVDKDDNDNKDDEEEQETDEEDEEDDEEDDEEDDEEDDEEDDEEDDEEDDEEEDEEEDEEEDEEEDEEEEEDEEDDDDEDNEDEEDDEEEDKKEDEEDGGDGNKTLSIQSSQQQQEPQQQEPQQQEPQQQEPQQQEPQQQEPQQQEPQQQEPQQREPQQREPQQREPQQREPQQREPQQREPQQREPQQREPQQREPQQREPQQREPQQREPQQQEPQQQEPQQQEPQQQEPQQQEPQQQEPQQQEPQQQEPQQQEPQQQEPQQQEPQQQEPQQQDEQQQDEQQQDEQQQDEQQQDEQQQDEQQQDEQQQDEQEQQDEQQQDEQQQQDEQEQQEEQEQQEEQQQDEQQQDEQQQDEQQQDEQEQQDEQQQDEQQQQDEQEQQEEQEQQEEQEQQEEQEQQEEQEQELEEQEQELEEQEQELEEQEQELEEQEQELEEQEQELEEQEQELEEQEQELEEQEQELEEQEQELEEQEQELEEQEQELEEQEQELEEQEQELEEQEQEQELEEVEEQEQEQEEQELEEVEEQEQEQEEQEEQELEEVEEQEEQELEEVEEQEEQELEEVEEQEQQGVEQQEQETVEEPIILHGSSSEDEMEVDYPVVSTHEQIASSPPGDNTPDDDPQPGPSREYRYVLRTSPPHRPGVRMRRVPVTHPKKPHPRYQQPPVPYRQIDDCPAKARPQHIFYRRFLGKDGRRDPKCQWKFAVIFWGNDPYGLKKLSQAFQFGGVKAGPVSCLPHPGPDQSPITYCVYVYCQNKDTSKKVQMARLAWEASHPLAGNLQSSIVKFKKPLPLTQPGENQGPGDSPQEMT
Calb FLC – C. albicans growth modulation with fluconazole; growth inhibition, % (concentration not given with the values); 300,000 compounds, 0.57% hits; C. albicans CaCi-2 (fluconazole-resistant clinical isolate) + fluconazole, Alamar Blue growth, 48 h;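 active = most replicates above 75%; inconclusive = exactly half above 75%; inactive = most below 75%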;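 also: all wells also contain fluconazole at 8 µg/ml as a sub-toxic cotreatment; 0% = median of DMSO wells and 100% = median of geldanamycin control wells; wells of about 8 µL received 7.5 nL stock; the first replicate is given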
Ecoli rRNA inh OD600 – further read-out of Ecoli rRNA inh, marked with its call; OD600 change, %; measured here: OD600 growth;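 optical density of the mix in the first replicate; 0 = DMSO median and -100 = no signal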
Ecoli rRNA inh RFP – second read-out of Ecoli rRNA inh, no call of its own (marks repeat the call); RFP signal change, %; measured here: RFP humanized mutant strains;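 first replicate; 0 = DMSO median and -100 = no signal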
* hit, by the source's call; ? = inconclusive; nt = no result given; & = joins results of further samples. This is a subset; count on the stated rates, not on these rows.

SMILES | Beta cell apopt | ALR H2O2 inh | Bfl-1 A1 inh | T cruzi repl | Beta2AR agonist | Ecoli rRNA inh | Ecoli rRNA inh OD600 | Ecoli rRNA inh RFP | LANA-H2B inh | Calb FLC
Cc1cc(=O)[nH]c(-n2nc(C)c(Oc3ccccc3O)c2C)n1 | nt | 38.7 | 0.2 | -15.6 | 2.4 | nt | nt | nt | 3.4 | -3.6
Cn1nccc1C(=O)N1CCC(Cc2ccccc2)CC1 | 2.8 | -3.8 | -0.7 | 21.0 | 9.3 | -2.4 | 2.1 | 0.0 | -1.5 | 17.4
CC1CCN(CCCn2c(SCC(=O)Nc3ccccc3Cl)nc3ccccc3c2=O)CC1 | -6.1 | -34.0 | -2.0 | 34.9 | 10.7 | -33.0* | -25.2* | -0.1* | 1.1 | 0.5
COc1ccc(OC)c(C(=O)NC(CC(N)=O)c2ccc(N3CCC(N4CCCCC4)CC3)c([N+](=O)[O-])c2)c1 (stereo not drawn) | 0.1 | -2.8 | -1.1 | 5.2 | 0.8 | -1.9 | 7.7 | 1.1 | -3.4 | -2.0
CCn1cc([N+](=O)[O-])c(C(=O)Nc2ccn(Cc3ccccc3F)n2)n1 | -2.6 | -7.6 | 1.0 | 32.2 | 1.6 | nt | nt | nt | 1.0 | -1.5
CC(=O)NCC(=O)N[C@@H](CC(=O)OCc1ccccc1)C(=O)OCc1ccccc1 | 0.3 | -0.9 | -0.4 | -2.4 | 0.0 | -1.8 | -9.1 | -2.3 | -0.7 | 1.2
CC(c1ccccc1)N1CC(C(=O)O)CC1=O (stereo not drawn) | -0.3 | -3.3 | 0.8 | -1.1 | -2.4 | 20.4 | 10.2 | -1.2 | -1.3 | -1.3
Clc1ccc(CN2CCN(c3ncnc4scc(-c5cccs5)c34)CC2)cc1 | 19.8 | -4.4 | 1.8 | 14.9 | 8.6 | nt | nt | nt | 0.0 | 18.3
COc1ccc(OC)c2[nH]c(=O)c(CCNC(C)=O)cc12 | -1.2 | -100.0 | -0.1 | -10.0 | 5.3 | 4.2 | 2.2 | -2.0 | -0.1 | -1.2
COc1ccc(OCc2ccc(C(=O)NN)cc2)cc1 | -3.6 | 45.5 | 0.3 | 2.1 | -3.4 | nt | nt | nt | -7.1 | ?
Cc1ccc(N(CC(=O)NC2CCCC2)C(=O)CCC(=O)Nc2ccccn2)cc1 | -3.0 | -0.8 | -0.2 | -7.3 | 0.6 | nt | nt | nt | -6.7 | -7.1
O=C1OC[C@H]2CCCN2C(=O)[C@@H](CC(=O)N(CCO)Cc2ccccc2)C/C=C\CC[C@@H]1Cc1ccc(F)cc1 | 4.9 | -1.6 | 0.9 | nt | -0.1 | -46.6 | -80.2 | -18.6 | -1.6 | nt
COc1ccc(N(CC(=O)NCCSc2ccccn2)S(=O)(=O)c2ccccc2)cc1OC | -1.1 | -2.8 | -0.4 | -5.1 | -1.0 | 3.1 | 2.2 | 0.5 | -6.7 | -0.8
CCCC1C(C#N)=C(N)Oc2n[nH]c(C(C)(C)C)c21 (stereo not drawn) | -2.3 | 17.1 | 1.4 | -14.0 | 4.7 | nt | nt | nt | -1.8 | -1.1
O=c1nc(-c2ccccc2)c2cc(SC(F)F)ccc2[nH]1 | nt | nt | 1.7 | 3.5 | -4.1 | 11.3 | 15.2 | 3.5 | -5.7 | -0.8
CCOC(=O)C1(Cc2ccc(OC)cc2)CCN(C(=O)[C@@H]2CCCN2C(C)=O)CC1 | -3.7 | nt | -0.8 | -4.1 | 2.2 | 7.2 | 4.9 | -3.2 | -0.4 | -7.4
CC(C)C(=O)Nc1ccc2c(c1)Cc1cc(NC(=O)C(C)C)ccc1-2 | 1.1 | nt | 0.4 | 5.2 | -0.5 | 7.4 | -3.1 | 0.6 | -1.2 | 12.2
COc1ccc(C2CC(c3ccc(Cl)cc3)=NN2C(=O)c2cccc([N+](=O)[O-])c2)cc1 (stereo not drawn) | 2.2 | -5.4 | 0.3 | 45.5 | -21.5 | 12.7 | 7.8 | -0.7 | 0.8 | 10.0
CCN(C(=O)Cc1c(C(=O)O)[nH]c2ccccc12)c1ccc(OC)cc1 | -0.1 | -5.5 | 1.0 | -15.0 | 0.2 | nt | nt | nt | -12.3 | 6.8
CC(Oc1cccc(Br)c1)C(=O)Nc1cccc(S(=O)(=O)N2CCOCC2)c1 (stereo not drawn) | 2.5 | -2.8 | 0.4 | nt | 11.2 | nt | nt | nt | -8.1 | nt
O=C(Nc1c2c(nn1-c1ccc(Cl)cc1)CS(=O)(=O)C2)c1ccccc1 | nt | 18.7 | -0.1 | -3.3 | -6.3 | -1.9 | -4.0 | -0.6 | -1.9 | -1.9
CC(C)c1nc2sc3c(=S)nc[nH]c3c2c2c1CCC2 | 4.5 | 58.7 | 0.5 | -18.1 | 8.9 | -11.1 | -12.2 | 0.4 | -0.7 | 28.2
C/C(=N\OCC(=O)Nc1ccc(Br)cc1)c1cccs1 | -5.9 | -9.1 | -0.8 | -5.5 | 0.4 | -42.1 | -68.3 | -7.9 | -1.1 | ?
CCCCCCSc1cc(-c2nc3ccc(Cl)cn3c2NCCCC)ccc1OC | 37.6 | -5.3 | 0.3 | 37.5 | -1.8 | -19.9&-4.2 | -36.5&-3.9 | -17.1&2.7 | 5.0 | -6.8
O=Nc1c(O)n(Cc2ccc(Cl)c(Cl)c2)c2ccccc12 | 10.6 | 9.0 | 0.1 | 9.0 | 5.2 | nt | nt | nt | 1.7 | 78.6*
COc1cc(CN2CCN(S(=O)(=O)c3ccccc3)CC2)cc(OC)c1OC | -4.7 | -20.3 | -0.1 | -1.2 | 3.4 | 0.2 | 3.1 | 0.0 | 1.4 | -2.4
CCC(=O)N1CCc2cc(Br)cc(S(=O)(=O)NCc3ccco3)c21 | -5.8 | -2.5 | 0.8 | 2.0 | -3.5 | nt | nt | nt | -3.3 | 8.7
CCCn1ccc2c(OCC(=O)Nc3ccc(NC(C)=O)cc3)cccc2c1=O | nt | 8.0 | -0.1 | -5.8 | 1.0 | -3.0 | -1.6 | 1.7 | -4.3 | -2.8
Cc1ccccc1NN=Nc1nc2c([nH]1)c(=O)n(C)c(=O)n2C | -1.4 | nt | 0.2 | nt | -7.6 | 8.4 | -3.0 | -2.5 | -1.1 | nt
COc1ccccc1CNS(=O)(=O)c1c(C)noc1C | 8.2 | -5.3 | 0.4 | -8.5 | 2.4 | nt | nt | nt | -1.6 | 1.4
CC(C)Cn1c(N)c(C(=O)CSc2ncnc3sc4c(c23)CCCC4)c(=O)n(C)c1=O | 0.9 | -4.1 | 0.6 | 21.8 | 4.0 | -6.0 | 6.7 | -1.9 | 2.5 | 3.6
O=C(NNC(=O)c1ccccn1)c1cccc([N+](=O)[O-])c1 | 35.1 | ? | 0.6 | 1.3 | 2.7 | -9.2 | 17.1 | 1.0 | 0.5 | 0.8
COc1ccc(-c2nnc(SCC(=O)c3ccco3)n2-c2ccccc2)cc1 | -3.2 | -5.9 | -0.3 | -13.0 | -14.0 | nt | nt | nt | -1.6 | 6.1
CCn1c(SCc2nc3ccccc3c(=O)[nH]2)nc2ccccc21 | -8.1 | -22.1 | 0.5 | -16.0 | -0.4 | 3.8 | 18.7 | -2.0 | 4.2 | 47.3
O=C(Nc1cccc(OC(=O)c2cccnc2)c1)c1cccnc1 | nt | 7.2 | -0.3 | -4.9 | -5.8 | nt | nt | nt | -1.3 | 3.0
COC(=O)c1c(NC(=O)Nc2ccc(Cl)cc2)sc(C)c1C | 2.6 | 1.2 | -0.2 | nt | 4.2 | nt | nt | nt | -6.5 | nt
COc1ccc(Nc2nnc(SCc3cc(=O)n4ccsc4n3)s2)cc1 | 1.9 | -37.0 | 1.1 | 9.8 | 5.2 | nt | nt | nt | -4.3 | 5.9
CCCCNC(=O)c1c(CSc2ccc(Cl)cc2)noc1C(=O)NCCC | 0.5 | -6.0 | -0.9 | 4.2 | -1.4 | -19.8 | -22.8 | -6.9 | -0.5 | -1.1
O=C1CSC(c2cccnc2)N1CC1CC1 (stereo not drawn) | -5.3 | nt | -0.2 | 6.8 | 13.7 | 14.9 | -0.8 | 3.5 | -8.3 | 1.9
C[C@@H](C(=O)O)[C@@H]1C[C@@]1(C)[C@@H](NC(=O)OCc1ccccc1)c1ccccc1 | 0.4 | -6.2 | -1.4 | -10.6 | -7.9 | -6.9 | -1.4 | -2.4 | 3.9 | -9.2
CCc1ccc(C(C)(O)C(CN2CCOCC2)c2ccccc2)cc1 (stereo not drawn) | -6.3 | -1.1 | 0.1 | -1.2 | -5.4 | -1.2 | -2.7 | 4.1 | -1.7 | -10.0
N#Cc1ccccc1CSc1nc(N2CCCCC2)nc(N2CCCCC2)n1 | 52.6 | -3.7 | 2.1 | 22.9 | 4.0 | nt | nt | nt | -4.0 | -19.8
O=C1c2cccc3c(Cl)ccc(c23)C(=O)N1O | -9.0 | 5.8 | -0.5 | -31.1 | 4.7 | nt | nt | nt | 6.0 | 30.8
CC(Cc1ccccc1)C(=O)N[C@@H](CO)Cc1ccccc1 (stereo partly drawn) | -13.7 | nt | -0.2 | -21.1 | -3.3 | 0.8 | 2.5 | 2.4 | -8.8 | 3.3
CCN(CC)C(=O)CSc1nnc(CNc2ccc(F)cc2)n1Cc1ccco1 | -2.0 | 3.5 | 0.6 | 5.8 | -1.4 | nt | nt | nt | -0.8 | -5.7
N#Cc1c(N)c2ccccn2c1C(=O)c1ccc(Br)cc1 | -8.1 | nt | 0.8 | 1.1 | -18.0 | -3.0 | -4.1 | -2.9 | 0.2 | -6.2
O=C(COc1cc(O)c2c(=O)cc(-c3ccccc3)oc2c1)c1ccc(F)cc1 | -1.3 | 1.9 | -1.1 | -0.6 | -12.5 | 15.7 | 10.3 | -1.4 | 0.1 | 47.8
COC(=O)N1C(=O)[C@@](Cc2ccccc2)(c2ccccc2)N1C(=O)OC | -0.6 | nt | 1.3 | -25.4 | 10.0 | 4.6 | 0.2 | -7.8 | -0.9 | -3.3
Cc1ccc(/C=C/C(=O)c2ccccc2O)cc1 | -2.6 | 10.3 | -2.0 | 4.1 | -2.6 | 1.7 | -2.7 | -1.3 | 6.4 | 0.4
Cn1ncc(Cl)c1C(=O)N1CCC(Cc2ccccc2)CC1 | 18.2 | -6.3 | 0.2 | 1.2 | 2.8 | -12.4 | -22.4 | -1.8 | 0.0 | 2.6
Cc1c(CN2CCC(CO)(CCOc3ccccc3)CC2)[nH]c2c(Cl)cccc12 | 12.3 | nt | 0.1 | 53.2 | 5.2 | -51.7 | -82.1 | -26.5 | 16.8* | 2.2
CCNC(=O)COC(=O)/C=C/c1ccccc1[N+](=O)[O-] | -0.5 | -1.8 | -1.9 | -18.5 | -1.7 | nt | nt | nt | 4.7 | -1.9
CCCN(CCC)C1=N/C(=C\c2ccco2)C(=O)N1c1ccccc1 | 3.1 | 11.9 | 1.2 | 19.3 | 0.4 | nt | nt | nt | 5.0 | -2.7
